VACV E9 pol inh: blocks vaccinia virus processive DNA synthesis; in vitro processive DNA synthesis, absorbance read-out; hits give low values; some inactives read as strong as hits; normalized absorbance, % (test concentration not listed); actives 0.94% (n = 46,000); AID 493162;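 active = replicate mean up to 90% and picked by the depositor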;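 note: 100% = median of the test wells of a plate; 100 nL library stock went into each well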
The depositor's hits bear a star.

The first two compounds (preview)
| compound | VACV E9 pol inh |
| --- | --- |
| CN(CC(=O)NC1CCCC1)S(=O)(=O)c1cc(Br)cnc1N | 103 |
| Cn1c(-c2ccc3nc(N)sc3c2)nc2cc(N)ccc21 | 95 |

The whole of this part, from the first entry:
| compound | VACV E9 pol inh |
| --- | --- |
| CN(CC(=O)NC1CCCC1)S(=O)(=O)c1cc(Br)cnc1N | 103 |
| Cn1c(-c2ccc3nc(N)sc3c2)nc2cc(N)ccc21 | 95 |
| CCN(Cc1ccccc1)C(=O)c1cccnc1 | 100 |
| Cc1[nH]c2ccccc2c1SCC(=O)NCc1ccco1 | 100 |
| O=C(CSCC(=O)c1ccccc1)c1ccccc1 | 75 |
| Cc1cc(C)c(CC2C(=O)c3ccccc3C2=O)cc1C | 100 |
| O=C(NCc1ccco1)c1cc(-c2ccccn2)nc2ccccc12 | 102 |
| CC(=O)Nc1nc(C)c(C(C)C)s1 | 98 |
| O=C(CSc1nc2ccccc2nc1N1CCCC1)NCCc1ccc(Cl)cc1 | 92 |
| c1ccc(CCNc2nc3ccccc3s2)cc1 | 101 |
| Cc1ccc(-c2nc(N)s[n+]2-c2ccccc2)cc1 | 111 |
| Cc1ccc(CNC(=O)Cn2ccn(Cc3ccccc3)c(=O)c2=O)cc1 | 94 |
| COc1ccc2c(c1)C(=NN)c1cc(OC)ccc1-2 | 68* |
| c1ccc(-c2nn3c(C4COc5ccccc5O4)nnc3s2)nc1 (stereo not drawn) | 106 |
| CN(NC(=S)Nc1ccccc1)c1ccc(Cl)cc1 | 100 |
| CCOC(=O)c1cc2c(c(CSc3cccc(C(F)(F)F)c3)c1)OCOC2 | 102 |
| CC[N+](CC)=c1scc(-c2ccc(Cl)cc2)s1 | 105 |
| COc1ccc(C2C(C(=O)Nc3ccc(OC)c(OC)c3)c3ccccc3C(=O)N2C)cc1 (stereo not drawn) | 99 |
| O=C(NC(Cc1c[nH]c2ccccc12)C(=O)O)c1cccs1 (stereo not drawn) | 98 |
| CCCn1c(C2CC(=O)N(c3ccccc3)C2)nc2ccccc21 (stereo not drawn) | 108 |
| CN(C1CCS(=O)(=O)C1)S(=O)(=O)c1ccc(F)cc1 (stereo not drawn) | 100 |
| Cc1nn(-c2ccccc2)nc1C(=O)NC1CCS(=O)(=O)C1 (stereo not drawn) | 99 |
| COc1ccc(NC(=O)c2cccc(C)c2)c(OC)c1 | 100 |
| COc1ccc2c(c1)c(=O)oc1cc(OC(C)C)ccc12 | 100 |
| Cc1cc(NC(=O)C2CC(=O)OC2c2ccccc2)no1 (stereo not drawn) | 101 |
| Cc1cc(C)n(C(=O)CNc2cccc(Cl)c2C)n1 | 98 |
| CN(C)c1ccc(C2N(Cc3ccccc3)CCN2Cc2ccccc2)cc1 | 100 |
| CCOC(=O)c1[nH]c(C)c(CC(C)C)c1C | 98 |
| C=CCN(CC=C)S(=O)(=O)c1ccc(C(=O)Nc2nc3c(s2)CC(C)CC3)cc1 (stereo not drawn) | 97 |
| CCOc1cc(/C=C2/SC(=N)N(c3nccs3)C2=O)ccc1OCCN1CCOCC1 | 100 |
| CC(Sc1nc2ccccc2s1)C(=O)Nc1nnc(-c2ccccc2)s1 (stereo not drawn) | 100 |
| O=C(c1ccccc1)c1nnc(-c2ccccc2)o1 | 102 |
| O=C(CCCN1C(=O)S/C(=C\C=C\c2ccccc2)C1=O)Nc1cccc(O)c1 | 101 |
| Cc1cc(=O)n(CCO)c(=O)[nH]1 | 105 |
| CCCN(CC1CC1)C(=O)c1cc(=O)c2ccccc2o1 | 99 |
| C=CCOc1nc(F)c(Cl)c2c1Oc1cc(Br)c(Br)cc1O2 | 100 |
| CCC(CO)NC(=S)Nc1cc(C(F)(F)F)cc(C(F)(F)F)c1 (stereo not drawn) | 102 |
| C=CCc1cc(C(=O)N2CCCCC2)ccc1O | 100 |
| CCCc1nc2c(o1)NC(N)=C(C#N)C2c1ccc(OC(C)C)c(OC)c1 (stereo not drawn) | 99 |
| N#CCCn1cc(C#N)c(-c2ccccc2)n1 | 100 |
| COc1ccc(NC2=Nc3ccccc3CC2)cc1 | 100 |
| CN(CCc1ccccn1)Cc1ccccn1 | 107 |
| O=C1NC2(CCCC2)N=C1c1ccccc1 | 106 |
| NC(=O)c1cc(C(=O)Cc2ccccc2)c[nH]1 | 126 |
| NC(=O)c1ccc2ccccc2c1 | 100 |
| COc1cc(CSc2nnnn2-c2ccc(C)cc2C)cc(OC)c1OC | 104 |
| Cc1nnc2c(N3CCCC3)nc3ccccc3n12 | 94 |
| Cc1ccc2c(c1)c1nc3ccccc3nc1n2CC(=O)O | 75 |
| CC(=O)OCc1cn2ccccc2n1 | 97 |
| CC(c1cccnc1)N(C(=O)Nc1ccccc1)C1CCCCC1 (stereo not drawn) | 103 |

Further structures follow:
| compound | VACV E9 pol inh |
| --- | --- |
| C=CCn1c(COc2cccc3ccc(C)nc23)nnc1SC | 88 |
| CCN(CC)CCNc1ccc2nnc(CCNC(=O)c3ccc(C)cc3)n2n1 | 99 |
| O=C(NC1CCCCCC1)c1cccc2c1C(=O)N(C1CCCCC1)C2 | 102 |
| C[n+]1cc(-c2ccc3ccccc3n2)cc2ccccc21 | 85* |
| CC(C)N(C(=O)Cn1c(-c2ccco2)nc2ccccc21)c1ccccc1 | 93 |
| Cc1cccc(C)c1N1C(=O)CSC1=O | 91 |
| O=C(c1ccc(C(F)(F)F)cc1)n1ccc(-c2cccs2)n1 | 97 |
| O=S(=O)(NC1c2ccccc2Oc2ccccc21)c1ccc2ccccc2c1 | 101 |
| CC1CCC(OC(=O)CCC(=O)Nc2ccc(Br)cc2)CC1 (stereo not drawn) | 100 |
| Cc1cc(OCC(=O)NC2CC2)c2c3c(c(=O)oc2c1)CCC3 | 106 |

The closing 7 records of the part above come first, to join the parts.
| compound | VACV E9 pol inh |
| --- | --- |
| C[n+]1cc(-c2ccc3ccccc3n2)cc2ccccc21 | 85* |
| CC(C)N(C(=O)Cn1c(-c2ccco2)nc2ccccc21)c1ccccc1 | 93 |
| Cc1cccc(C)c1N1C(=O)CSC1=O | 91 |
| O=C(c1ccc(C(F)(F)F)cc1)n1ccc(-c2cccs2)n1 | 97 |
| O=S(=O)(NC1c2ccccc2Oc2ccccc21)c1ccc2ccccc2c1 | 101 |
| CC1CCC(OC(=O)CCC(=O)Nc2ccc(Br)cc2)CC1 (stereo not drawn) | 100 |
| Cc1cc(OCC(=O)NC2CC2)c2c3c(c(=O)oc2c1)CCC3 | 106 |
| O=C(Nc1nc2ccc(Cl)cc2s1)c1ccc(C(=O)c2ccccc2)cc1 | 110 |
| O=c1[nH]c(-c2ccc(Cl)cc2)nc2sc3c(c12)CCCC3 | 101 |
| Cc1c(C)c2c(c(C)c1OCc1ccccc1)C(CO)C(C)(C)O2 (stereo not drawn) | 99 |
| OC(COc1ccccc1)CN1CCCCC1 (stereo not drawn) | 99 |
| CC1CC(C)CN(c2ncnc3scc(-c4ccccc4)c23)C1 (stereo not drawn) | 102 |
| CCn1cc(CCCC(=O)NCCN2CCN(C)CC2)c2ccccc21 | 93 |
| O=C(c1cccnc1Cl)N(Cc1ccccc1)Cc1ccccc1 | 100 |
| CCCc1nc(NC2CCCCC2)c(C#N)c2c1CCCC2 | 99 |
| CN(C(=O)c1nc2ccccc2nc1Cl)C1CCCCC1 | 98 |
| COc1ccc(C2SCCN2S(C)(=O)=O)cc1Br (stereo not drawn) | 103 |
| CC(C)(C)OC(=O)N1CCCN(C(=O)c2sc3ccccc3c2Cl)CC1 | 125 |
| O=C(CSc1c2c(nc3ccc(Cl)cc13)CCCC2)NCCN1CCOCC1 | 104 |
| CC1=C(c2ccc(C)c(C)c2)S(=O)(=O)NC1=O | 103 |
| O=C(CC1CCCC1)OCc1ccc(Cl)cc1 | 94 |
| O=C(O)CCc1nc2ccccc2n(CCc2ccccc2)c1=O | 106 |
| CCOc1ccc(Sc2cc(C(=O)N3CCCC3)c3ccccc3n2)cc1 | 99 |
| CCC(C)(C(=O)NC1CCCCC1)N(C(=O)c1ccccn1)c1ccccc1 (stereo not drawn) | 106 |
| O=C(NCC(c1ccc(F)cc1)N1CCOCC1)C(c1ccccc1)c1ccccc1 (stereo not drawn) | 97 |
| O=C(O)CCC/C=C\C[C@@H]1[C@@H](/C=C/[C@@H](O)COc2cccc(Cl)c2)[C@H](O)C[C@@H]1O | 100 |
| Cc1cc(OCC(O)CN2CCN(c3ccccn3)CC2)ccc1Cl (stereo not drawn) | 100 |
| OCCn1c(C(F)(F)F)nc2ccccc21 | 91 |
| N#Cc1cc(C(=O)c2cccs2)c(C(F)(F)F)nc1SCc1ccccc1 | 103 |
| COc1cccc(C(=O)Cn2c(=O)n(CCc3ccccc3)c(=O)c3cc(OC)c(OC)cc32)c1 | 105 |
| Cc1cccc(N/C(=N\S(=O)(=O)c2ccc(Cl)cc2)Nc2nc(C)cc(C)n2)c1 | 100 |
| CC1(C)N=C(NS(=O)(=O)c2cc(C(F)(F)F)cc(C(F)(F)F)c2)N(c2ccccc2)O1 | 87 |
| O=C(c1cccs1)N1CCCCC1 | 101 |
| COc1ccc(NC(=O)COc2ccc(C)cc2)cc1 | 99 |
| Cc1onc(-c2c(Cl)cccc2Cl)c1C(=O)N(C)c1nnc(C(F)(F)F)s1 | 99 |
| c1ccc(-c2csc(Cc3c[nH]c4ccccc34)n2)cc1 | 100 |
| CCOC(=O)CSc1nc2sccn2c1C=Nc1cc(Cl)cc(Cl)c1 | 100 |
| C=CCC1C(=O)N(S(=O)(=O)c2ccc(Cl)cc2)N=C1CCC (stereo not drawn) | 102 |
| COc1ccc(NC(=O)CC(NC(C)c2ccccc2)C(=O)O)cc1 (stereo not drawn) | 105 |
| O=C(NC1CCCC1)c1cc(-c2ccccc2O)no1 | 86 |
| O=C1c2ccccc2NC(c2ccccc2)N1NS(=O)(=O)c1ccccc1 (stereo not drawn) | 100 |
| Cc1c(C)c(C)c(CN2CCOC(c3ccccc3)C2C)c(C)c1C (stereo not drawn) | 99 |
| O=C(CSc1nc2c(c(=O)n1-c1ccccc1)SCC2)N1CCCCC1 | 101 |
| O=C(CCN1C(=O)C2C3C=CC(C3)C2C1=O)NC(c1ccccc1)c1ccccc1 (stereo not drawn) | 79 |
| COc1ccc(OC)c(NC(=O)CSc2nccn2-c2ccc(Cl)cc2)c1 | 100 |
| N#Cc1cccc(NC(=O)COC(=O)/C=C/c2ccccc2)c1 | 96 |
| Cc1ccc2nc(NC(=O)CCNS(=O)(=O)c3cccs3)sc2c1 | 102 |
| O=C(O)C(Cc1ccccc1)N1C(=O)/C(=C/c2ccccc2)SC1=S (stereo not drawn) | 97 |
| COC(=O)c1ccc(O)c(/C=N/N(CCO)C2=NS(=O)(=O)c3ccccc32)c1 | 100 |
| CCn1c2ccccc2n2c(C(=O)OC)c(C)nc12 | 100 |
| CCN(C(=O)Cn1cccc1C1=NC(c2ccccc2)CO1)c1cccc(C)c1 (stereo not drawn) | 104 |
| OCc1ccccc1CN1CCCCC1 | 101 |
| C=CCN(CC=C)S(=O)(=O)c1ccc(C(=O)N=c2sc3ccccc3n2CC)cc1 | 99 |
| CCOC(=O)c1csc(NC(=O)CC)n1 | 101 |
| CC(=O)NS(=O)(=O)c1ccc(C)cc1 | 106 |
| COc1cc(C=NCc2ccco2)ccc1O | 96 |
| Cc1ccc2c(c1)-c1onc(C(=O)NCCCN3CCCCC3)c1CO2 | 70 |

(more compounds)
| compound | VACV E9 pol inh |
| --- | --- |
| Nc1c(-c2ccccc2)cnc2ncnn12 | 104 |
| O=C(CSc1nnc(COc2ccccc2)o1)N1CCCCC1 | 89 |
| Cc1ccc(S(=O)(=O)N(CCO)c2cc3c(s2)CCCC3)cc1 | 100 |
| CN(C)c1nc(-c2ccccc2)nnc1-c1ccccc1 | 109 |
| Cn1c(CS(=O)(=O)c2ccccc2)c(C#N)c2ccccc21 | 101 |
| CCCCCCCCCCCCCCC[C@@H](O)[C@H](CO)NC(=O)CCCCCCC | 101 |
| COc1ccc(N(C(=O)C(C)C)S(=O)(=O)c2cccc3cccnc23)cc1 | 108 |
| CC(C)OC(=O)Cn1c2ccccc2c2nc3ccccc3nc21 | 82 |
| CCOC(=O)c1[nH]c(C)c(C(=O)Nc2cc(C)cc(C)c2)c1C | 101 |
| CS(=O)(=O)/C(C#N)=C/c1cccn1-c1ccc(OC(F)(F)F)cc1 | 100 |
| O=C(O)C1CCCN(S(=O)(=O)c2cccs2)C1 (stereo not drawn) | 98 |
| COC(=O)Cc1ccc2c(c1)NC(=O)CO2 | 94 |
| CC1CCCCN1C(=O)c1cc(-c2ccc(F)cc2)no1 (stereo not drawn) | 94 |
| CCc1ccc(NC(=O)c2cc(C)no2)cc1 | 101 |
| O=C1c2ccccc2C(=O)N1C1c2ccccc2Oc2ccccc21 | 100 |
| Cc1cc2cc(CNC(=O)CC3CCCCC3)ccc2n1C | 101 |
| Cc1ccc(-c2nsc(SCC(=O)c3ccc(Cl)cc3)n2)cc1 | 100 |
| Cc1c(N2C(=O)SC(CC(=O)O)C2=O)c(=O)n(-c2ccccc2)n1C (stereo not drawn) | 101 |
| O=C(CC1c2ccccc2Oc2ccccc21)Nc1ccccn1 | 98 |
| Cc1onc(-c2ccccc2)c1-c1ccnn1C(=O)c1ccc(Cl)cc1 | 100 |
| COc1ccc(C=NCCN2Cc3ccccc3C2=O)cc1OC | 99 |
| CC(=O)Nc1cccc(Oc2ccc3c(c2)C(=O)N(c2cccc(Cl)c2)C3=O)c1 | 100 |
| CSc1nc(NC(=O)NS(=O)(=O)Cc2ccc(Cl)cc2Cl)nc(N2CCCC2)n1 | 84 |
| NC(=O)Cc1nc(-c2ccc(Br)cc2)cs1 | 98 |
| CC(C)c1ccccc1NC(=O)COc1ccc(Br)cc1 | 99 |
| CCSc1nnc2c(=O)[nH]c(=O)[nH]c2n1 | 99 |
| CC(C)/C=C1\CC/C(=C\c2ccc(Cl)cc2)C1=O | 102 |
| CCCn1c(C(O)c2ccc(C(C)C)cc2)nc2ccccc21 (stereo not drawn) | 100 |
| COc1ccc(C2CC(=O)C=C(NCc3ccccc3)C2)cc1 (stereo not drawn) | 99 |
| Cc1ccc(C(=O)N2CCc3ccccc32)cc1 | 99 |
| Cc1ccc(C)n1C(Cc1ccccc1)C(=O)O (stereo not drawn) | 98 |
| COc1ccc(-c2nc(Cn3c(SCc4cc(C)ccc4C)nc4ccncc43)c(C)o2)cc1 | 100 |

Source: PubChem

The list is partial, so the mix of outcomes need not match the whole.
